# From PubChem BioAssay
# LANA-H2A inh – blocks KSHV LANA binding to histone H2A/H2B; cell-free LANA-H2A/H2B peptide, fluorescence polarization; inhibition, % (no concentration beside the values); 320,000 compounds, 0.6% hits; in the data active = inhibition mostly above about 10%, no sharp cut-off; inactive = mostly below about 6.7%;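 also: stock transfer was 7.5 nL into about 10 µL; 0% = median of vehicle wells and 100% = median of positive control wells; one replicate is shown; the record names a cut of 25% in any replicate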
# B2AR ag – agonists of human beta-2 adrenergic receptor inducing internalization; Am2.2-beta2AR cells, FAP receptor internalization, flow cytometry; reference of the scale not given here; response, % (no concentration beside the values); 340,000 compounds, 0.43% hits; P07550; AID 504454;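 active = response above a set limit, near 3 SD of response in nonfluorescent compounds, cut at about 42% in these data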;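 also: stock transfer was 100 nL into about 11 µL; a reference agonist was the positive control; negative values mostly stem from fluorescent compounds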
# Target sequence (P07550 whole entry, looked up): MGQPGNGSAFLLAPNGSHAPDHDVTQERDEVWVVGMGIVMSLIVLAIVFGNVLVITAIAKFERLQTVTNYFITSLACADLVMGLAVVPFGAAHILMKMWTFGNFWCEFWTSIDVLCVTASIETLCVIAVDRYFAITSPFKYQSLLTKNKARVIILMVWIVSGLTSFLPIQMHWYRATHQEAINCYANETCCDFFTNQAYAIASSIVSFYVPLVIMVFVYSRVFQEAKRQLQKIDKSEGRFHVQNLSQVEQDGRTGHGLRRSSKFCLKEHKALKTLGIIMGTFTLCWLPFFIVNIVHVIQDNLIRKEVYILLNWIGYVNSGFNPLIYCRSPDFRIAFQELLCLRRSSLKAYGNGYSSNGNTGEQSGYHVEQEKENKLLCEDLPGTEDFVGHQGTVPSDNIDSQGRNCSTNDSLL
# T cruzi repl – blocks replication of Trypanosoma cruzi; AID 1885; 300,000 compounds, 1.4% hits; inhibition, % (no concentration beside the values); T. cruzi beta-gal in NIH3T3, luminescence, 90 h;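 active = mean inhibition across valid replicates above about 55%, limit read from the data; inconclusive = mean below that limit but half or more replicates reach it; inactive = mean below it, under half of replicates reach it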;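 also: signal also drops with host cell toxicity which is not excluded here; 0% = plate median of DMSO wells and 100% = zero luminescence signal; higher percent means less beta-gal luminescence so fewer parasites; stock transfer was 50 nL into about 50 µL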
# Calb FLC – affects C. albicans growth with fluconazole. growth inhibition, % (concentration not given with the values). C. albicans CaCi-2 (fluconazole-resistant clinical isolate) + fluconazole, Alamar Blue growth, 48 h. 300,000 compounds, 0.57% hits. AID 1979;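 active = most replicates above 75%; inconclusive = exactly half above 75%; inactive = most below 75%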;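 also: all wells also contain fluconazole at 8 µg/ml as a sub-toxic cotreatment; 0% = median of DMSO wells and 100% = median of geldanamycin control wells; wells of about 8 µL received 7.5 nL stock; the first replicate is given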
# UCH37 DUB inh – human UCH37 deubiquitinating enzyme inhibition. inhibition, % (concentration not given with the values). 330,000 compounds, 0.33% hits. Q9Y5K5. purified proteasome/UCH37, Ub-AMC cleavage fluorescence. AID 588478;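 active = mean of two replicates above 20%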;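 also: 0% = compound-free wells with enzyme and 100% = wells lacking proteasome; stock transfer was 100 nL into about 20 µL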
# Target sequence (Q9Y5K5 whole entry, looked up): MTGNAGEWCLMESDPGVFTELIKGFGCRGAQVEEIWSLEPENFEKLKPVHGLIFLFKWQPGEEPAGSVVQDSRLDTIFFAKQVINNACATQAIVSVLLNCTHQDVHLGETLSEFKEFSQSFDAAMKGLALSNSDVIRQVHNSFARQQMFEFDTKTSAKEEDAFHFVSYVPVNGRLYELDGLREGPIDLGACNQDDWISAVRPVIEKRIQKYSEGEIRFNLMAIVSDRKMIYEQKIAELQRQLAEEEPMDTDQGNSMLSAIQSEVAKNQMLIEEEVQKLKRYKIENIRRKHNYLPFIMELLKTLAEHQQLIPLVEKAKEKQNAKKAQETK
#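 Material: Human UCH37 enzyme supplied as purified proteasome complex | Schedule: 30 min compound-proteasome preincubation then 25 min substrate reaction, room temperature | Detection: AMC fluorescence from Ub-AMC cleavage, excitation 355 nm, emission 460 nm | Benchmarks: Wells without proteasome as full block, compound-free enzyme plus substrate as uninhibited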
# Bfl-1 A1 inh – inhibitors of the anti-apoptotic protein A1, read as caspase activation; 330,000 compounds, 0.066% hits; caspase activation, % (no concentration beside the values); MEF A1-2A-BIM cells, Caspase-Glo 3/7 luminescence, 3 h; percent of clofoctol response, vehicle zero; AID 2462;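 active = over half of replicate activation scores above 10%, or exactly half above 10 with the replicate mean above 10; inconclusive = replicate mean below 10 yet half the replicates above 10; inactive = over half of replicates below 10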;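 also: wells of about 30 µL received 50 nL stock; many hits fall short of the cut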
# Beta cell apopt – blocks beta cell apoptosis; protection from apoptosis, % (test concentration not listed); INS-1E cytokine-induced death, ATP luminescence, 48 h; percent of positive-control rescue, neutral wells zero; 300,000 compounds, 0.8% hits;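 active = all replicates at 75% or more, or half of them and the mean; inconclusive = half reach 75% but not the mean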;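 also: 0% = cytokine-treated negative control wells and 100% = positive control rescue; higher means more ATP so stronger rescue from cytokine killing; wells of about 40 µL received 100 nL stock; the first replicate is given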
# RanGTP-Imp inh – inhibitors of RanGTP-importin-beta interaction, primary screen, biochemical, FRET, CFP-Ran, YFP-importin-beta, homogeneous; cell-free CFP-Ran/YFP-importin-beta FRET ratio; inhibition, % (concentration not given with the values); 300,000 compounds, 1.1% hits;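 active = most replicates above 15%; inconclusive = exactly half above 15%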;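 also: 0% = DMSO wells and 100% = Ran loaded with GDP instead of GTP; wells of about 40 µL received 100 nL stock; the first replicate is given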
# Active calls of the source: *; ? = inconclusive; · = not tested or not shown. No enrichment for hits, and some 4.3% of all compounds hit somewhere here.
# The line under a structure holds: LANA-H2A inh, B2AR ag, T cruzi repl, Calb FLC, UCH37 DUB inh, Bfl-1 A1 inh, Beta cell apopt, RanGTP-Imp inh
- COC(C/C=C/[C@H](O)COCc1ccccc1)OC
  ·, -0.4, -9.5, -0.1, 3.8, ·, ·, -1.6
- COc1ccccc1CC(=O)N1CCCC(CCC(=O)NCc2ccccc2F)C1 (stereo unspecified)
  -9.1, -8.0, 3.2, -9.9, 0.5, 0.4, -2.0, 3.0
- Cc1ccccc1NC(=O)Cc1cccs1
  -1.5, -10.3, 4.2, -5.6, -0.2, 1.1, -0.6, -2.7
- Cc1ccccc1Cn1cc(CCC(=O)N2CCOCC2)c2ccccc21
  1.5, -1.3, 7.5, 5.9, -1.8, -0.3, -1.8, -2.8
- COc1ccc(C(C)=O)cc1CS(=O)(=O)CC(=O)NCCc1c[nH]c2ccccc12
  4.7, 5.2, ·, ·, 1.9, -0.7, 2.6, ·
- CC(=O)c1cccc(-n2nnnc2SCC(=O)NNC(=O)C2CCCCC2)c1
  -4.9, -0.5, 2.7, 0.3, 0.1, 0.5, -0.5, 0.3
- Cn1c(C(=O)O)c(CC(=O)Nc2ccc3c(c2)OCCO3)c2ccccc21
  5.8, -0.9, -9.3, -1.8, 0.3, -1.5, -6.0, -0.6
- COc1ccc(NC(=O)CN(C)C(=O)CCc2nc3cc(S(=O)(=O)N4CCOCC4)ccc3n2C)cc1
  -4.0, -0.7, 2.5, -1.1, 0.1, 1.4, -7.9, ?
- C=CCn1c(-c2ccc(OC)cc2)csc1=Nc1c(C)n(C)n(-c2ccccc2)c1=O
  4.4, 6.1, 6.8, -3.3, 1.5, 0.5, 4.9, 0.8
- CCc1cc(=O)oc2cc(C)cc(OC(=O)c3ccco3)c12
  1.6, 5.5, -6.7, -2.8, -0.1, 1.5, 1.8, 0.2
- Cc1ccc(Cl)cc1NC(=O)CC(O)(C(F)(F)F)C(F)(F)F
  4.0, 18.0, 2.0, -37.7, 3.2, 0.9, ·, 4.0
- CC(=O)c1ccc(N2CCN(C(C)C(=O)Nc3ccc4c(c3)OCCO4)CC2)cc1 (stereo unspecified)
  2.5, 3.0, ·, ·, 5.9, 0.7, 3.1, ·
- O=c1[nH]c(-c2ccc(Cl)cc2)cs1
  1.8, 6.1, -1.3, -2.7, 3.9, -0.1, 5.5, 4.2
- CC1CCc2c(nc3ncnn3c2N2CCN(c3ccccc3)CC2)C1 (stereo unspecified)
  -1.7, -2.8, 3.4, 1.1, 3.4, 0.2, 6.6, 0.0
- CNC(C)C#Cc1ccc2sc3cc(OC)c(OC)cc3c(=O)c2c1 (stereo unspecified)
  7.6, ·, 50.6, -4.0, ·, -8.9, -1.4, 38.7*
- CCn1c(=O)c(C(=O)CN2CCN(S(=O)(=O)c3cc(C)ccc3C)CC2)c(N)n(Cc2ccccc2)c1=O
  1.7, 18.1, 33.3, 1.7, -1.1, -1.0, -10.1, -0.2
- O=C1c2ccccc2S(=O)(=O)N1Cc1c(F)cccc1Cl
  2.1, -4.4, -10.7, -6.8, 2.1, -0.4, 2.0, -4.6
- COc1ccccc1C(=O)Nc1cc2ccccc2oc1=O
  4.2, -7.7, -26.5, 20.8, -68.9, -9.1, -1.4, 1.6
- CCCN1CCN(CCCNC(=O)C2CCN(c3nnc(-n4c(C)ccc4C)s3)CC2)CC1
  4.0, 3.1, -10.5, 8.1, 3.3, 1.2, -11.1, 0.1
- CC(C)CN1C(=O)C(=O)N(CC(=O)NCc2ccc3c(c2)OCO3)C1=O
  1.8, 2.8, 36.3, -5.5, 3.7, 1.0, -1.5, -0.5
- Cc1cccc(-n2cnc3cc(C(=O)N4CCCCC4)ccc32)c1
  6.8, -8.0, -5.0, -0.3, 3.0, 0.4, -4.5, -3.6
- O=C(CNC(=O)c1sc2ccccc2c1Cl)NCc1cccnc1
  -2.1, -14.5, -10.0, 8.1, 3.0, 0.5, 2.8, 3.5
- O=C(NC(=S)NC1CCSC1=O)c1cccc([N+](=O)[O-])c1 (stereo unspecified)
  2.2, 0.9, -12.0, 7.8, 2.8, 0.8, -8.3, 2.6
- OCCNc1ncnc2c1sc1nc(N3CCOCC3)c3c(c12)CCC3
  -9.3, -3.8, 3.1, 65.6, -36.2, 0.4, 4.8, -2.2
- CCCN(CC(=O)Nc1ccccc1C)C(=O)C1CC(=O)N(c2cccc(C)c2C)C1 (stereo unspecified)
  0.2, -1.6, -1.9, ·, 2.9, -0.8, -0.4, -4.7
- NC(=O)c1c(NC(=S)Nc2ccc(F)cc2)sc2c1CCCC2
  2.9, -0.5, -14.5, 12.1, -38.3, -1.0, 3.8, 2.3
- CCOC(=O)CCNC(=O)Nc1ccc2nc(C)n(Cc3cccc(Cl)c3)c(=O)c2c1
  2.5, 29.8, -5.8, 13.2, 0.7, 1.2, -0.6, 4.1
- O=C(C1CCCC1)N1CCC(CC2CC(c3cccc(Br)c3)=NO2)(C(=O)NCC2CCCCC2)CC1 (stereo unspecified)
  -2.0, -6.7, 32.5, 14.7, 3.9, 0.2, -4.5, ?
- Cc1nn(-c2ccc(F)cc2)c(C)c1CN1CCN(CCc2ccccc2)C(CCO)C1 (stereo unspecified)
  -6.3, -1.6, 9.8, -4.3, 4.0, 0.5, -2.2, -4.6
- Cc1ccc(C2CC(c3ccccc3)n3ncnc3N2)cc1 (stereo unspecified)
  -5.4, -3.8, -9.8, 8.8, -0.5, -0.4, -4.6, 7.1
- Cn1cc(/C=N/NC(=O)c2ccc(C#N)cc2F)c2ccccc21
  1.6, 2.2, 2.2, 4.8, ·, -0.9, ·, -3.1
- CCOC(=O)c1c(N)sc(C(=O)N(CC)CC)c1C
  -3.2, -3.2, -1.1, -1.4, 3.7, 0.6, -0.2, -5.4
- O=S(=O)(c1ccccc1C(F)(F)F)N1CCN(c2ncnc3sccc23)CC1
  -5.6, 2.4, ·, ·, -0.2, -2.2, 27.1, ·
- CC1CC(C)CN(C(=O)c2ccccc2Nc2ccc(SC(F)F)cc2)C1 (stereo unspecified)
  -0.6, -5.8, 40.7, -7.7, 6.0, 0.4, -1.3, -3.9
- Cc1ccccc1C(=O)Nc1ccc(C(=O)N/N=C/c2ccc(F)cc2)cc1
  1.7, -6.4, 0.5, -6.0, ·, 1.0, 5.1, -0.1
- O=C(c1ccccc1OC(F)F)N1CCN(S(=O)(=O)c2ccc3c(c2)OCCCO3)CC1
  -1.3, 4.2, ·, ·, 2.6, 1.0, -2.7, ·
- CC(OC(=O)c1cc(=O)[nH]c2ccccc12)c1ccccc1 (stereo unspecified)
  6.2, 1.1, 6.4, 3.0, -18.8, -1.3, 4.4, 6.9
- CC1(C)CC(=O)C2=C(C1)OC(N)=C(C#N)C2c1ccc2c(c1)OCO2 (stereo unspecified)
  -3.5, -0.3, -21.8, 6.8, 2.5, 1.2, -2.7, -0.2
- COc1ccc(CNC(=O)c2cccc(NC3=NC4CS(=O)(=O)CC4S3)c2)cc1 (stereo unspecified)
  -2.0, -2.7, -0.3, 14.7, -2.1, 0.4, -0.8, 4.3
- CC(C)CNC(=O)COc1ncnc2ccccc12
  -3.1, 0.9, 2.7, -5.4, -0.2, 0.5, -3.3, -2.3
- C[C@H](CO)N1C[C@H](C)[C@@H](CN(C)S(=O)(=O)c2cccs2)Oc2c(NC(=O)Nc3ccccc3)cccc2C1=O
  -1.4, -3.4, ·, ·, 5.1, 1.0, -2.7, ·
- CCCCn1c(N)c(N(CCOC)C(=O)C2CC(=O)N(c3cccc(SC)c3)C2)c(=O)[nH]c1=O (stereo unspecified)
  -7.5, 6.4, ?, -18.6, 5.0, -0.3, -0.6, 1.0
- CC(NC(=O)Cn1cccc1C(=O)c1ccccc1)c1ccccc1 (stereo unspecified)
  3.5, 2.5, -11.4, -4.1, 0.7, 1.0, -1.1, -2.5
- COc1ccc2[nH]c(C)c(CCN(Cc3cccs3)C(=S)Nc3ccccc3)c2c1
  13.0, 6.3, 58.2*, -1.2, 6.8, 0.6, 17.4, -294.0
- CCCn1cc(S(=O)(=O)c2ccccc2)c(=O)c2cc(F)c(N3CCN(C)CC3)cc21
  -1.9, 4.9, 8.1, -1.8, -63.9, -0.2, -1.0, -0.3
- O=C(N/C(=C\c1ccc2c(c1)OCO2)C(=O)N1CCOCC1)c1cccs1
  0.0, 2.8, -11.0, -5.2, 7.5, 1.0, -3.3, -0.2
- COC(=O)C1=C(COc2ccccc2)NC(=O)NC1c1ccc(Cl)cc1 (stereo unspecified)
  0.0, ·, 10.8, 9.6, 4.5, -1.9, -4.2, -2.1
- Cc1ccccc1CCN(C(=O)c1csnn1)C(C(=O)NC1CCCC1)c1ccncc1 (stereo unspecified)
  0.0, 1.3, 23.6, 3.8, 4.4, 0.3, 0.1, ?
- O=C(O)CCC(=O)Nc1ccccc1Oc1ccccc1
  -4.3, 5.4, -12.2, 1.8, 0.2, 0.2, ·, ?
- CC(=O)c1c(C(C)=O)c(C)n(-c2cccc([N+](=O)[O-])c2)c1C
  ·, -0.4, -9.7, -16.3, 1.2, -0.4, -0.3, -0.9
- Cc1ccc(S(=O)(=O)N2CCN(Cc3csc(C)n3)CC2)cc1
  2.4, 1.2, -11.7, -2.0, -2.6, -0.5, 4.6, -2.7
- NS(=O)(=O)c1ccc(CCNC(=O)COC(=O)Cc2c(F)cccc2Cl)cc1
  2.0, 6.8, -2.8, 4.5, 3.0, -0.6, ·, -4.7
- CC(C)[C@H](NC(=O)NC1CCN(Cc2ccccc2)CC1)C(=O)O
  -1.3, -3.4, 1.8, -9.8, 1.2, 0.4, -8.2, -0.2
- CCC(C)CCN1CCN=C1Nc1ccccc1 (stereo unspecified)
  7.1, -0.2, ·, ·, -0.2, 1.0, -3.7, ·
- Cc1c(NC(=S)NC(=O)c2cccc([N+](=O)[O-])c2)c(=O)n(-c2ccccc2)n1C
  2.7, 8.0, -2.2, 1.3, 1.6, 0.1, ·, 7.1
- COc1ccc(N(C(=O)c2cccnc2)S(=O)(=O)c2ccc(OC)c(OC)c2)cc1
  -0.6, 10.4, 5.0, -0.2, 5.6, -0.5, -3.3, 5.0
- COc1cc(NC(=O)COc2cc(O)c3c(c2)OC(C)(C)CC3=O)cc(OC)c1OC
  0.3, 3.8, 1.3, 3.4, 0.7, -1.2, 109.6*, 2.3
- COc1cc(OC)cc(-c2cc3nc(C)cc(N4CCN(C(=O)c5ccco5)CC4)n3n2)c1
  0.7, ·, -1.8, 26.1, ·, 0.2, 14.3, 28.9*
- Cc1ccc2c(c1)c1c(n2CC(O)Cn2ccnc2C)C(=O)CCC1 (stereo unspecified)
  -1.0, 1.5, -2.5, 0.2, -16.9, -0.1, -12.6, -2.6
- CC1CCc2c(sc(NC(=O)Cn3nc(C(F)(F)F)c4c3CCCCC4)c2C#N)C1 (stereo unspecified)
  0.4, -1.8, -28.1, 8.5, 0.5, 2.2, -3.4, 0.7
- O=C(CSc1nnc(-c2ccc(F)cc2)o1)Nc1ccccc1N1CCOCC1
  1.7, -14.2, -13.2, -5.3, -0.1, 0.4, -0.8, ?
- CC(C)c1ccc(OCC(=O)Nc2cccc3c2CCCC3)cc1
  -0.3, -14.4, -7.3, 3.0, 4.2, 0.3, -3.4, -1.3
